Arbovirus inh: arbovirus infection inhibition; 200,000 tested, 0.37% active; inhibition, % at 10 µM; AID 1251; arbovirus infection cell-based antiviral screen;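 active means inhibition from about 30%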;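 further: bluetongue infection of BSR cells; cell survival read as ATP light after 72 h; 0% = infected wells without compound and 100% = uninfected wells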
YopH inh: blocks Yersinia enterocolitica YopH tyrosine phosphatase; fluorescence Ex485/Em525; 140,000 tested, 0.16% active; inhibition, %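 (about 10 µM by stock and volumes)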;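 active means inhibition of 50% or more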;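 further: controls were vehicle for no effect and minimum signal wells for full effect; inactives centre near -20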
RecA intein inh: blocks M. tuberculosis RecA intein splicing. P9WHJ3. 290,000 tested, 0.75% active. AID 2221. inhibition, %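 (about 9 µM by stock and volumes)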. cell-free RecA intein splicing, fluorescence; in the data active means inhibition above about 30%; inconclusive means no clear call, values can overlap the other calls;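 further: 0% = vehicle wells and 100% = reference inhibitor control wells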
Target sequence (P9WHJ3 whole entry, looked up): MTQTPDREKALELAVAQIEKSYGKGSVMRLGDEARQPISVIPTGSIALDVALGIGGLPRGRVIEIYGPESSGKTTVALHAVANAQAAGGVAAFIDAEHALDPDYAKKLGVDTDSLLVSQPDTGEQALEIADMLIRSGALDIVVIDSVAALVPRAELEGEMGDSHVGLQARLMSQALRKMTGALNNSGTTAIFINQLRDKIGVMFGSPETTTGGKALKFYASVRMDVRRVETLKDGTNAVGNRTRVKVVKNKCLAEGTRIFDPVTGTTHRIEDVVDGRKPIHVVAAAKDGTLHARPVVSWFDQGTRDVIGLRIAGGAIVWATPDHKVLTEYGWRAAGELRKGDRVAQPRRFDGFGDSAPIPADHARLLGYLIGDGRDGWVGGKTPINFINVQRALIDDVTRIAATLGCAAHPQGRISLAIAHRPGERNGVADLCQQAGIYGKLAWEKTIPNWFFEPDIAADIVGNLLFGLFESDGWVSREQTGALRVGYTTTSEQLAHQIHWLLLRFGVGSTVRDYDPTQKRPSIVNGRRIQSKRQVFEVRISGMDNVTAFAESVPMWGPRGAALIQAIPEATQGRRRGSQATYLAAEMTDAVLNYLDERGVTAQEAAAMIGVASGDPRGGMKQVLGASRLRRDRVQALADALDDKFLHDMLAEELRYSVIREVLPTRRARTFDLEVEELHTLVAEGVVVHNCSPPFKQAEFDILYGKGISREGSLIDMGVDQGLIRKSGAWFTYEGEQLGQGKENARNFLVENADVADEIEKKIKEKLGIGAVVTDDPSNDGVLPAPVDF
Mtb H37Rv: M. tuberculosis H37Rv growth inhibitors, H37Rv strain (AID 1626) | M. tuberculosis H37Rv growth inhibition; higher % means a stronger effect | inhibition, % at 10 µM; hits with a dose series show IC50 in µM | 220,000 tested, 0.95% active;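 active means confirmed in a dose series; inconclusive means inhibition above 80% but not taken into the dose series; inactive means below 80% or under 30% at every dose of the series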;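 further: bacteria incubated seven days before Alamar blue readout; 0% = bacteria only wells and 100% = bacteria with antibiotic wells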
Mtb betalactam: beta-lactam sensitization of Mtb H37Rv; M. tuberculosis H37Rv growth with meropenem, percent inhibition; hits of this screen are not shown here; inhibition, % at 25 µM; 330,000 tested, 0.27% active; AID 434955;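 active means about 74% or more and at least 40 points above the plate without the antibiotic, then above 30% in a dose series; inconclusive means first-round hits that could not be retested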;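 further: growth measured after seven days incubation then overnight dye step; 0% = bacteria only wells and 100% = bacteria with antibiotic; twin plates without the antibiotic show which effects depend on it; some results filed as inactive read as strong as hits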
Arbovirus inh repeat: also measured in Arbovirus inh; calls as there; inhibition, %; measured here: 10K subset replicate screen; many hits read low in the repeat;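 first of two repeat runs on a subset; 0% = infected and 100% = uninfected wells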
* = called active by the depositor; ? = inconclusive; . = not tested or not shown. Some of the compounds tested; count on the stated rates, not on these rows.

SMILES	Arbovirus inh	YopH inh	RecA intein inh	Mtb H37Rv	Mtb betalactam	others
CCOc1cc(CNCc2ccccc2)ccc1OCC(=O)NC1CCCCC1	.	.	1.4	.	-1
Cc1cccc(NC(=O)CSc2nnc(-c3ccc(S(=O)(=O)N4CCOCC4)cc3)n2C)c1	-5	-23	-1.3	-4%	4
COc1cc(OC)cc(C(=O)Nc2ccc3c(c2)CCCN3C(=O)c2cccs2)c1	.	.	3.9	.	7
Fc1cccc2sc(Nc3nc4cc5c(cc4s3)OCCO5)nc12	21	11	-0.4	29%	77
O=C(CCCc1ccccc1)NCCCN1CCOCC1	0	-6	-7.8	-11%	4
CCOc1ccc(NCc2cc3cc(OC)ccc3[nH]c2=O)cc1	.	.	-2.5	?	90
CCOc1ccc(NC(=O)c2ccc(NC(=O)COC(=O)c3ccc(NC(=O)CC#N)cc3)cc2)cc1	.	.	-0.3	.	-11
N#CCOC(=O)[C@H](Cc1c[nH]c2ccccc12)NS(=O)(=O)c1ccc(Cl)cc1	.	.	4.8	.	1
Cc1cc2c(ccc3[nH]onc32)n1	-2	-14	8.9	-2%	?
COc1ccc2cc(CN(CC3COCCO3)S(=O)(=O)c3ccc(Cl)cc3)c(=O)[nH]c2c1 (configuration not stated)	-4	-43	0.4	-6%	13
COc1ccc(C(=O)NC(=S)NC2CCSC2=O)cc1 (configuration not stated)	-1	-21	0.8	0%	-5
Cc1onc(-c2ccccc2Cl)c1C(=O)Nc1nnc(-c2ccc(Cl)cc2Cl)s1	-14	-48	7.0	-4%	-4
S=c1[nH]nc(-c2cccnc2)n1/N=C/c1ccco1	1	.	0.9	-2%	-7
Cc1no[n+]([O-])c1COc1cccc(/C=N/Nc2nncn2N)c1	.	.	2.7	-5%	-11
NC(=O)c1nsc(C(=O)N(CC(=O)NCc2ccc3c(c2)OCO3)C2CCCC2)c1N	1	-27	.	1%	2
N#Cc1ccccc1OCCCNC1CCCC1	-4	.	-4.0	-1%	1
CCCCN1C(C(=O)Nc2ncccn2)=C(O)c2ccccc2S1(=O)=O	.	.	-0.6	.	9
O=C(CN1C(=O)NC2(CCCCCC2)C1=O)Nc1ccc2c(c1)CCC2	-3	.	1.2	9%	2
CCN(CC)C(=O)C1CCCN(c2ccc([N+](=O)[O-])cc2[N+](=O)[O-])C1 (configuration not stated)	3	.	1.3	-5%	-2
O=C(Nc1ccccn1)c1ccc(S(=O)(=O)c2ccc(Cl)cc2)cc1	1	.	18	-1%	3
O=C(c1cc(-c2cccnc2)nc2ccccc12)N1CCC2(CC1)OCCO2	-2	-18	3.9	-6%	-1
COc1ccc(CN2CCNC(=O)C2CC(=O)N(C)Cc2ccccn2)cc1OC (configuration not stated)	-4	.	-0.5	2%	-11
CCCn1nc(NC(=O)CC(C)C)c2cc3cccc(C)c3nc21	.	.	-22	.	-7
CCn1c2ccccc2c2cc(NC(=O)C/C(C)=N/NC(=O)c3ccccc3N)ccc21	-9	-41	0.2	2%	3
Cc1ccc(NC(=O)CCl)c(C)c1	9	.	0.8	78%	95
COc1ccc(C(=O)NCCNc2ccc([N+](=O)[O-])cc2)cc1	1	.	1.3	4%	-4
CC(C(=O)Nc1ccc(S(=O)(=O)N2CCOCC2)cc1)N1CCN(c2ccccn2)CC1 (configuration not stated)	22	.	3.1	2%	-2
CC[C@H](C)[C@@H](CNC)NC[C@@H](Cc1ccc(O)cc1)NCC(C)(C)C	.	.	1.1	.	-7
CC(=O)Nc1ccc(NC(=O)c2ccc(-n3c(C)ccc3C)cc2)cc1	-10	-17	3.6	3%	7
Cc1ccc(NS(=O)(=O)c2ccc3c(c2)N(C)CCO3)cc1	.	.	-0.7	.	3

Arranged by count of non-hydrogen atoms (lowest first): some entries from above
SMILES	Arbovirus inh	YopH inh	RecA intein inh	Mtb H37Rv	Mtb betalactam	others
N#Cc1ccccc1OCCCNC1CCCC1	-4	.	-4.0	-1%	1
CCN(CC)C(=O)C1CCCN(c2ccc([N+](=O)[O-])cc2[N+](=O)[O-])C1 (configuration not stated)	3	.	1.3	-5%	-2
CCOc1cc(CNCc2ccccc2)ccc1OCC(=O)NC1CCCCC1	.	.	1.4	.	-1

New compounds follow:
SMILES	Arbovirus inh	YopH inh	RecA intein inh	Mtb H37Rv	Mtb betalactam	others
CCCn1c(=O)n(C)c(=O)c2c(SC(C)C(=O)NCC3CCCO3)nc(CC(C)C)nc21 (configuration not stated)	.	.	1.3	.	-1
COc1cc(NC(=O)COc2ccc(F)cc2)nc(OC)n1	-2	-44	1.7	1%	5	Arbovirus inh repeat=7
CCOc1cc(C2NC(=O)CCC2[N+](=O)[O-])cc(Br)c1OCC (configuration not stated)	.	.	-0.4	.	6
CCCCN1C2CCCC1CC(NC(=O)c1cccc(OC)c1)C2 (configuration not stated)	.	.	-1.2	.	0
COC(=O)c1ccc(COC(=O)CNC(=O)CNC(=O)c2ccc(OC)cc2)cc1	.	.	2.2	.	2
COc1ccc(-n2c(O)c(C(C)=NCc3ccco3)c(=O)[nH]c2=O)cc1	-2	-55	-3.6	2%	-2
CCOC(=O)C(O)(c1ccc(N)c(OC)c1)C(F)(F)F (configuration not stated)	2	-25	-1.5	.	-3
COc1ccc(CNC(=O)C2=C(C)C(=O)OC23CCC(C)CC3)cc1 (configuration not stated)	-1	-24	2.2	6%	-2
CN(C(=O)c1ccc2nccnc2c1)C1CCCCC1	.	.	4.3	-9%	1
COc1ccc(/C(C)=N/Nc2nc3ccccc3nc2C)cc1	.	.	-3.9	-14%	15
CCN(CC(=O)Nc1c(F)cccc1F)C(=O)c1ccc(C2SCCS2)cc1	.	.	0.9	.	3
CCOc1ncccc1C(=O)N(CC)CC(=O)Nc1ccc(NC(C)=O)cc1	0	-15	1.2	-1%	-1
CN1CCc2c(sc(N)c2C(=O)c2ccc(Cl)cc2)C1	.	.	-1.2	.	2
COc1ccc(C2=NN(C(=O)CSc3ncccn3)C(c3ccc(C)cc3)C2)cc1 (configuration not stated)	-9	5	15	8%	7
CC1=NN(c2ccc(C(=O)OC(C)C)cc2)C(=O)/C1=C\C=C\c1ccco1	-1	-16	2.4	2%	-1
O=[N+]([O-])/C=C1\CCCCCN1	.	.	-0.4	-1%	-5
C/C(=N/O)c1c(O)c(C)c(-c2ccccc2)n(-c2ccccc2)c1=O	-2	-16	-1.2	4%	6
c1ccc(CO/N=C(\c2ccc(C3CC3)nc2)C2CC2)cc1	1	.	7.6	15%	3
Nc1n[nH]c(-c2ccc(Br)cc2)c1Cl	6	-30	3.4	3%	10
O=C1CCC(C(=O)Nc2cccc(Oc3ccccc3)c2)=NN1	12	.	-1.1	13%	8
Cc1nc(CC(C)C)cc(C(=O)N2CCCC(Nc3ccc(C)c(C)c3)C2)n1 (configuration not stated)	.	.	-4.0	.	-8
CCOc1nc(Oc2cccc(C(=O)O)c2)nc(Oc2cccc(C(=O)O)c2)n1	-1	-23	4.2	-8%	-11
CC(C)(C)c1ccc2c(c1)N(CC(=O)N1CCCC1)C(=O)CO2	.	.	-0.5	.	3
O=C1N/C(=C\c2ccccc2)c2ccccc21	-19	18	-5.5	4%	-5
COc1ccc(C(=O)N2CCC(C(=O)NCc3ccccn3)CC2)cc1	0	-4	-0.9	-4%	-4
CN1CCN(c2c(F)cc([N+](=O)[O-])c(N)c2Br)CC1	2	.	-0.1	3%	-5
O=C(CCNC(=O)C1CCN(S(=O)(=O)c2ccc(F)cc2)CC1)NCc1cccc(Cl)c1	.	.	-2.1	.	-2
CC(CN1c2ccccc2Sc2ccccc21)N(C)C (configuration not stated)	-17	-9	4.4	8%	-3
Cc1occc1C(=O)Nc1ccc(S(=O)(=O)N2CCCC2)cc1	2	-33	1.7	1%	.
CCOC(=O)c1c(NC(=O)CNCCOC)sc2c1CCCC2	-1	-3	0.3	45%	68

The final 6 compounds of the section before open the next one:
SMILES	Arbovirus inh	YopH inh	RecA intein inh	Mtb H37Rv	Mtb betalactam	others
COc1ccc(C(=O)N2CCC(C(=O)NCc3ccccn3)CC2)cc1	0	-4	-0.9	-4%	-4
CN1CCN(c2c(F)cc([N+](=O)[O-])c(N)c2Br)CC1	2	.	-0.1	3%	-5
O=C(CCNC(=O)C1CCN(S(=O)(=O)c2ccc(F)cc2)CC1)NCc1cccc(Cl)c1	.	.	-2.1	.	-2
CC(CN1c2ccccc2Sc2ccccc21)N(C)C (configuration not stated)	-17	-9	4.4	8%	-3
Cc1occc1C(=O)Nc1ccc(S(=O)(=O)N2CCCC2)cc1	2	-33	1.7	1%	.
CCOC(=O)c1c(NC(=O)CNCCOC)sc2c1CCCC2	-1	-3	0.3	45%	68
N=c1ccn(Cc2c(Cl)cccc2Cl)cc1	.	.	2.8	-3%	-20
Cc1cc(C)cc(NC(=O)c2cc(Cl)sc2Cl)c1	-2	-35	-1.4	47%	.
COc1ccc(C2C(C(N)=O)=C(C)Nc3nc(CCCO)nn32)cc1 (configuration not stated)	.	.	-2.5	.	-5
CC(C)CN(CCCNC(=O)CN1C(=O)COc2ccc(S(=O)(=O)N3CCOCC3)cc21)CC(C)C	.	.	-1.3	.	2
N#CCCN(Cc1cccnc1)C(=S)NC(=O)c1ccco1	13	.	1.5	-2%	0
Cc1c(NC(=O)CSc2n[nH]c(-c3ccccc3)n2)c(=O)n(-c2ccccc2)n1C	5	-14	-0.2	-2%	-13
CCOc1ccccc1CN1CCCC(C(=O)c2cc(F)ccc2F)C1 (configuration not stated)	.	.	-1.6	.	-4
COCC(C)n1c(SCC(=O)NC(=O)Nc2ccc3c(c2)OCCO3)nc2ccccc2c1=O (configuration not stated)	11	0	.	1%	3
O=S(=O)(c1ccc(F)cc1)c1nc(-c2ccccc2F)oc1N1CCCCC1	0	-18	1.5	12%	-3
CCn1c(Cc2c(C)[nH]c3ccccc23)n[nH]c1=S	0	-28	-4.3	4%	-5
CCC(C)c1ccc(OCC(=O)NNC(=O)C2CCCCC2)cc1 (configuration not stated)	.	.	4.3	.	-16
COc1ccccc1N1C(=O)N(CC(=O)C(C)(C)C)c2ccccc2S1(=O)=O	.	.	-1.3	.	9
O=C(/C=C/c1ccc2c(c1)OCO2)Nc1nc(-c2ccccc2)cs1	-22	-30	-1.7	24%	-12
CCOc1cccc(-c2c(C(=O)N/N=C(\C)c3ccccn3)nnn2-c2nonc2N)c1	.	.	2.0	.	80
CC1=NNC(=O)C1Oc1ccccc1 (configuration not stated)	.	.	96*	-7%	7
Cc1cc(Nc2cc(F)ccc2C)n2ncnc2n1	-4	-31	0.2	1%	0	Arbovirus inh repeat=0
O=c1c2ccccc2nc(-c2ccc(Cl)c(Cl)c2)n1O	-1	11	-0.8	44µM*	93
O=C(Nc1ccc([N+](=O)[O-])c(NC(=O)C2CCCO2)c1)C1CCCO1 (configuration not stated)	0	-34	-0.1	4%	8
CCOC(=O)C1(CC)CC(CSc2nc3ccccc3[nH]2)OC1=O (configuration not stated)	15	-51	1.4	-11%	2
O=C(Nc1ccc(F)cc1)N1CCCN(c2ccc(C(F)(F)F)cn2)CC1	.	.	2.0	14%	-6
CNC(=S)NNc1nc(-c2ccccc2)c2cc(Cl)ccc2n1	.	.	3.1	.	9
CCc1ccc(C2c3[nH]c4ccccc4c3CCN2C(=O)c2cc(C)nn2C)cc1 (configuration not stated)	-16	.	0.3	22µM*	99
Cc1cccc(Cn2c(C)nc3ccc([N+](=O)[O-])cc3c2=O)c1	.	.	1.4	.	2
O=C1c2cccc3c([N+](=O)[O-])ccc(c23)C(=O)N1c1ccc(Cl)cn1	-39	-19	-10	.	101
COc1ccc(CNC(=O)CNC(=O)N2CC(=O)Nc3ccccc32)cc1	.	.	-0.7	.	-8
O=S1(=O)CCOCCCN1Cc1ccccc1F	.	.	1.8	.	-10
COc1ccc(OC)c(C(=O)c2ccc(Cl)cc2)c1	.	.	0.4	4%	-5
c1ccc2c(N3CCCCC3)nc(N3CCOCC3)nc2c1	11	.	1.4	9%	-9
Cc1ccccc1OCC(=O)NCC(=O)N/N=C/C=C/c1ccccc1	-10	-21	.	-2%	.
O=C(NCCc1c[nH]c2ccccc12)c1cc(Cl)c2c(c1)OCO2	.	.	4.7	.	4
O=C(O)CCCN=C1NC2(CCCC2)Cc2ccccc21	3	-7	1.6	-4%	-7
COc1ccc(NC2CC(=O)N(c3cccc([N+](=O)[O-])c3)C2=O)cc1 (configuration not stated)	1	.	0.7	83%	73
Cc1csc(SCC(=O)N(C)CC(=O)Nc2ccccc2Cl)n1	.	.	-0.8	.	1
C/C(=N/NC(=O)CSCc1ccc(Cl)cc1)c1cccc(NC(=O)c2ccccc2)c1	3	-6	0.6	-1%	9
CC(C)(C)c1ccc(S(=O)(=O)N2CCCCC2)cc1	14	-18	3.2	1%	-2
CCC(=O)N(Cc1cc2cc(OC)ccc2[nH]c1=O)c1cc(C)ccc1C	-7	-2	2.3	4%	4
CCOc1cc(CNCCO)cc(Br)c1OCc1ccccc1Cl	-36	-15	1.7	75%	99
S=c1[nH]nc(-c2cnccn2)n1-c1ccccc1	6	-18	-1.8	3%	-28

Assay outcomes as filed in PubChem BioAssay.
